AID504770 = E. coli YBA685 growth inhibition, screen for V. cholerae RctB inhibitors; z-score (concentration not given with the values); 0.27% of 130,000 active; E. coli YBA685 rctB-dependent plasmid, OD600 growth, 3 h; stronger effect = lower value;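 active means z-score under -2 on both plates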;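 further: wells of about 30 µL received 100 nL stock; score is relative to mean and SD of the test wells; the first replicate is given; strong numbers were not always called active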
CapD inh = CapD enzyme inhibition. purified CapD enzyme, fluorescence intensity read-out; stronger effect = lower value; some hits fall short of the stated cut. z-score (no concentration beside the values). 0.23% of 140,000 active;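 active means z-score under -4 in either of two replicates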;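 further: stock transfer was 100 nL into about 40 µL; score is relative to mean and spread of the plate; one replicate is shown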
Active calls of the source: *; . = no result given; & = joins results of further samples. These rows are one share of the data. The share of hits here may be higher or lower than overall.

SMILES | AID504770 | CapD inh
O=C(Nc1cccnc1)Nc1c[nH]c2c(Cl)cccc2c1=O | -1.2 | .
Cc1ccc(-c2n[nH]c(=O)c3ccccc23)cc1S(=O)(=O)NCC1CCCO1 (centres undefined) | -0.65 | -0.045
CCC(=O)/C(C)=C/c1ccco1 | 0.8 | -0.79
CCOc1ccc(CNc2ccc(O)cc2)cc1 | -0.45 | -0.13
CC(=O)N1CCc2cccc(NC(=O)NS(=O)(=O)c3ccc(C)cc3)c21 | . | -0.59
Cc1c(OCc2ccc(Cl)cc2Cl)ccc2c1OC(C)(C)CC2=O | 0.5 | 0.5
O=C(Cn1c(-c2ccccc2Cl)nc2ccccc2c1=O)Nc1cccc(C(F)(F)F)c1 | . | -1.2
CC(=O)n1c2c(c3ccccc31)OC(N)=C(C#N)C2c1ccncc1 (centres undefined) | . | 1.5
COC(=O)c1ccc(OCc2nc(N)nc(N3CCCCC3)n2)cc1 | . | -0.53
COC(=O)Nc1ccc(S(=O)(=O)N2CCCC(C(=O)N(C)Cc3ccccc3)C2)cc1 (centres undefined) | . | -0.28
O=C1CC(c2ccc(O)cc2)Oc2cc(O)cc(O)c21 (centres undefined) | . | -0.35
CC(C)N(C(=S)Nc1ccccc1Cl)C(C)c1ccccn1 (centres undefined) | 0.65 | -2.3
Cc1cc(C)c(S(=O)(=O)Nc2ccc3c(c2)OCO3)c(C)c1 | 2 | -0.74
Cc1ccc(C)n1-n1cnc2sc3c(c2c1=O)CCC3 | -0.55 | 0.34
CCOc1ccc(NC(=S)NC(c2ccccc2)c2ccccc2)cc1 | 1 | 1.1
CC(C)(C)c1ccc(NC(=O)NCCSCc2ccco2)cc1 | . | 0.2
CNC(=O)c1c(O)c2cc(OC)c(OC)cc2[nH]c1=O | 0.95 | .
OC(CN1CCCCC1)Cn1c2ccc(Cl)cc2c2cc(Cl)ccc21 (centres undefined) | . | -0.56
CCOc1ccccc1CNc1ncn[nH]1 | 1.5 | -0.72
CCS(=O)(=O)CCSc1nc2ccccc2s1 | 2 | -0.79
O=C(CSc1ccc(-c2ccncc2)nn1)NC1CCCC1 | 0.4 | 0.68
COC(=O)c1ccc(CSc2nc(C(F)(F)F)cc(=O)n2C)cc1 | . | -0.28
c1cc(-c2nnc3n2CCCCC3)ccn1 | . | 0.26
c1ccc(Cn2nnnc2C(c2cccs2)N(Cc2cccnc2)Cc2ccco2)cc1 (centres undefined) | -0.8 | .
O=C(Cn1cncn1)N/N=C/c1ccccc1OC(=O)/C=C1\SC(=O)NC1=O | 0.15 | .
O=C(COc1ccccc1)N1CCCC2CCCCC21 (centres undefined) | 0.9 | 0.51
COc1cc(-c2c(C#N)c(N)n3c(nc4ccccc43)c2C#N)ccc1OCC#N | . | 0.46
CC(C)(C)OC(=O)NCCC(=O)NNC(=O)c1cnn(-c2ccc([N+](=O)[O-])cc2)c1C(F)(F)F | . | -0.6
O=C(N/N=C/c1c(Sc2nnnn2-c2ccccc2)nc2ccccn2c1=O)c1ccccc1 | -0.65 | .
c1ccc(-c2nnc3ccc(SCc4cccnc4)nn23)cc1 | -0.5 | 4.7
CSc1ccccc1Nc1ncnc(N)n1 | -0.05 | 0.28
Cc1cc(C)c(N=C2c3cc(C)ccc3-c3ncccc32)c(C)c1 | . | -0.54
COc1ccc(N(C(=O)c2cc(C)cc(C)c2)C2C=CS(=O)(=O)C2)c(OC)c1 (centres undefined) | -0.7 | -0.48
Clc1ccc(CCNc2ncnc3c2oc2ccccc23)cc1 | 0.6 | .
COc1cccc(OC)c1C(=O)Nc1nnc(C(F)(F)F)s1 | 1.1 | -0.95
Cc1c(NS(=O)(=O)c2cccc3c2C(=O)c2ccccc2C3=O)c(=O)n(-c2ccccc2)n1C | . | -0.44
CN(C)c1ncnc2nc[nH]c12 | 1.1 | -0.48
Cc1ccc(-c2nc(NCc3cccs3)c3ccccc3n2)cc1 | . | -0.74
Cc1nn(CC(=O)c2cc(C)n(CC(F)(F)F)c2C)c(=O)c(C#N)c1C | 0 | .
CCCOP(=O)(OCCC)C(NC(=O)c1ccccc1)=C(Sc1ccc(Cl)cc1)Sc1ccc(Cl)cc1 | . | 0.16

4 entries from above, set out differently:
canonical_smiles	AID504770	CapD inh
Clc1ccc(CCNc2ncnc3c2oc2ccccc23)cc1	0.6	.
COc1cccc(OC)c1C(=O)Nc1nnc(C(F)(F)F)s1	1.1	-0.95
Cc1c(NS(=O)(=O)c2cccc3c2C(=O)c2ccccc2C3=O)c(=O)n(-c2ccccc2)n1C	.	-0.44
CN(C)c1ncnc2nc[nH]c12	1.1	-0.48

The main list resumes; the two compounds before the break are reprinted first.
SMILES | AID504770 | CapD inh
Cc1nn(CC(=O)c2cc(C)n(CC(F)(F)F)c2C)c(=O)c(C#N)c1C | 0 | .
CCCOP(=O)(OCCC)C(NC(=O)c1ccccc1)=C(Sc1ccc(Cl)cc1)Sc1ccc(Cl)cc1 | . | 0.16
C#Cc1cccc(NC(C)=O)c1 | 0.15 | 0.22
c1ccc2oc(-c3ccc(NCc4ccc5c(c4)OCO5)cc3)nc2c1 | 1.9 | .
Cc1ccccc1-n1c(=O)cc(N2CCc3ccccc3C2)[nH]c1=O | -0.25 | 0.79
CCOC(=O)c1nn(-c2ccc(C)cc2)c(=O)cc1OCC(=O)N1CCN(c2ccccc2)CC1 | 1.5 | .
COc1ccc(N2CCN(C(=O)CCc3c(C)nc4nc[nH]n4c3=O)CC2)cc1 | 0.3 | -0.04
CC(=O)NCc1ccc(C(=O)COC(=O)c2cc3c(s2)CCCCC3)o1 | -0.95 | .
Cc1c(O)c(=O)n(-c2ccccc2)n1C | . | -1.1
CCOC(=O)c1sc(NC(=O)c2ccccc2)c(SC#N)c1C | -0.2 | 0.2
CCNC(=O)n1cc(-c2cnccn2)c(-c2ccc(C(F)(F)F)cc2)n1 | . | -0.3
O=C(O)COc1ccccc1/C=C1/SC(=S)N(NC(=O)c2ccco2)C1=O | -0.35 | .
Cc1ccc(C)c(N=Cc2ccccc2O)c1 | 0 | -0.73
CCOC(=O)C1=C(N)N(c2ccc(S(N)(=O)=O)cc2)C2=C(C(=O)CC(C)(C)C2)C1c1ccc(F)cc1 (centres undefined) | . | -0.55
O=C(Nc1cccc(Oc2ccc3c(c2)C(=O)NC3=O)c1)c1ccc(Br)o1 | 0.45 | 6.4
CC(C)C1NC(=O)N(C2CCCCC2)C1=O (centres undefined) | -0.75 | .
NC(Cc1ccc(F)cc1)C(=O)O (centres undefined) | . | -2.8
CC(=O)Nc1cccc(C(=O)OC(C)C(=O)NC2(C#N)CCCCC2)c1 (centres undefined) | 0.6 | .
CCSC1=N/C(=C\c2ccco2)C(=O)N1c1ccc(OC)c(Cl)c1 | -0.15 | .
Cc1nn(C)c2sc(C(=O)N(Cc3ccccn3)Cc3ccccn3)cc12 | 0.2 | 0.86
O=C(Nc1nc2ccccc2n1Cc1ccc(Cl)cc1)C1CCCCC1 | 0.15 | 0.23
CC(C)Oc1cccc(C(=O)O)c1 | 0.7 | 0.26
Cc1cc(C(=O)NN2CC(O)=C(c3nc4ccccc4n3C)C2=N)c(C)o1 | -0.15 | .
COc1ccc2nc(NC(C)=O)sc2c1 | 2.9 | .
O=C(OCc1ccccc1Cl)c1cc(=O)[nH]c2ccccc12 | -0.85 | 0.41
COc1ccc(Cn2c(CO)cnc2SCC(=O)N(C(C)C)C(C)C)cc1 | 0.9 | 0.21
CC1CC(=O)c2cnn(-c3nc4ccccc4s3)c2C1 (centres undefined) | -0.75 | 0.45
O=C(CSc1nnc2sc3ccccc3n12)c1ccc2c(c1)OCO2 | . | -0.2
COC(=O)Nc1ccc(S(=O)(=O)N2CCCCC2)cc1 | 2.3 | .
CCOc1ccc(S(=O)(=O)NCC(c2ccc(N(C)C)cc2)N(C)C)cc1 (centres undefined) | -0.85 | -0.74
COc1cccc(CSc2nncn3c2cc2oc(C)cc23)c1 | 0.35 | -0.24
O=C(C/C=N/OCc1ccc(Cl)cc1Cl)c1ccc(Cl)cc1 | . | 0.07
c1ccc(Oc2ccc(-c3ccn[nH]3)cc2)cc1 | -0.8 | -0.28
Cc1oc(-c2ccc(C(=O)O)cc2)nc1COc1ccccc1 | -1.1 | 0.56
COc1ccc(CNS(=O)(=O)c2cc(C(=O)Nc3ccc(Oc4ccccc4)cc3)ccc2F)cc1 | . | -0.56
CC(=O)Nc1nc2cc(C)c(C)cc2[nH]1 | . | 1.3
COC(=O)c1c(NC(=O)CSc2nc(C)nc3sc4c(c23)CCC4)sc2c1CCC2 | . | 0.11
CCc1cc(C=Nc2ccccc2)c(O)s1 | -0.75&1.1 | -1.1
COc1ccc(C2=NN(CN3C(=O)C(=O)c4cc(Br)ccc43)C(c3ccccc3)C2)cc1 (centres undefined) | . | -0.12
Cc1ccc(S(=O)(=O)c2nc(N3CCOCC3)sc2Cl)cc1 | -0.55 | 0.12
CN(C(=O)CSc1nnc(-c2ccccc2)o1)C1CCS(=O)(=O)C1 (centres undefined) | 0.6 | .
N#CC1=C(N)OC(C2CC2)=C(C#N)C1c1ccccc1 (centres undefined) | 1.1 | -0.41

An excerpt from above in order of length of the SMILES, largest number first.
SMILES | AID504770 | CapD inh
O=C(CSc1nnc2sc3ccccc3n12)c1ccc2c(c1)OCO2 | . | -0.2
O=C(C/C=N/OCc1ccc(Cl)cc1Cl)c1ccc(Cl)cc1 | . | 0.07
COC(=O)Nc1ccc(S(=O)(=O)N2CCCCC2)cc1 | 2.3 | .
CC1CC(=O)c2cnn(-c3nc4ccccc4s3)c2C1 (centres undefined) | -0.75 | 0.45
COc1ccc2nc(NC(C)=O)sc2c1 | 2.9 | .

Further compounds
SMILES | AID504770 | CapD inh
C[C@H](N)[C@H](O)c1cccc(O)c1 | . | -1.1
CCOC(=O)Cn1c(-c2ccc(Cl)cc2)csc1=Nc1ccc(F)cc1 | -0.1 | -0.04
O=c1c(NCCCc2ccccc2)nccn1-c1ccc2c(c1)OCCO2 | -0.15 | 3.3
O=C(Cn1c(CO)nc2ccccc21)Nc1ccccc1 | 0.1 | 0.52
O=C1c2ccccc2C(=O)N1CCn1cnc2c(cnn2-c2cccc(Cl)c2)c1=O | -0.05 | .
Cc1n(O)c2c(NO)ccc(N=O)c2[n+]1[O-] | -0.65 | -2.4
COc1ccc(-c2nc(SC(C)C(=O)O)c3c(=O)n(C)c(=O)n(C)c3n2)cc1 (centres undefined) | 0.2 | .
COc1nc(C)nc(N/C=C(\C#N)C(=O)C2CC2)n1 | 1.3 | 0.96
Cc1onc(-c2c(Cl)cccc2Cl)c1C(=O)OCC(F)(F)F | . | 0.76
O=c1[nH]c2ccccc2nc1NN=C1CCN(c2ncccc2[N+](=O)[O-])CC1 | . | 0.29
O=C(CN1CCSc2ccccc21)NCc1ccccc1 | -0.7 | .
CSCc1cc(N(C)C)nc(SCc2ccc(Cl)cc2Cl)n1 | . | 0.26
COc1ccc(N=c2sc(C3=c4ccccc4=NC3=O)c(O)n2-c2ccc(OC)cc2)cc1 | . | -0.2
CCOC(=O)N1CCc2c(sc3ncn(Cc4ccc(Cl)cc4)c(=O)c23)C1 | -0.3 | 0.26
CCCN(CCC)c1ncnc2ccc(Br)cc12 | -0.35 | -0.32
COC(=O)c1ccc(CSc2nnc(N)s2)o1 | -0.3 | .
CCOC(=O)c1sc(Nc2ccc(C)cc2)c(C(=O)NCc2ccco2)c1N | -0.4 | .
CC1Sc2ccc(S(=O)(=O)C(C)CC(=O)Nc3ccccc3F)cc2NC1=O (centres undefined) | -0.35 | -1.7
COc1cc(C2C3=C(Nc4c2c(=O)n(C)c(=O)n4C)c2ccccc2C3=O)ccc1O (centres undefined) | . | 0.76
O=C(O)C1Nc2ccccc2C2C=CCC12 (centres undefined) | 0.35 | -8.8*
COC(=O)c1cc(OC)c(Br)c(OC)c1 | -0.9 | -0.23
O=P1(C(Nc2ccc(Br)cc2)c2ccc(O)cc2)OCCCO1 (centres undefined) | . | 0.55
O=C1CCC(=O)N1c1nc2n(n1)C(c1ccccc1)C=C(c1ccccc1)N2 (centres undefined) | . | 9.6
O=C(O)CCn1ncc(=O)c2ccccc21 | 0.05 | .
O=[N+]([O-])c1cc(C(F)(F)F)cc([N+](=O)[O-])c1Oc1ccc(Cl)c(Cl)c1 | . | 0.29
N#CCc1cn(-c2ccccc2)nc1-c1ccccc1 | -0.15 | 0.39
CCOC(=O)C(C)c1nc2ccccc2[nH]c1=O (centres undefined) | 1.4 | 37
COc1ccc(C(=O)Nn2c(SCC(=O)NCCc3ccc(OC)c(OC)c3)nc3ccccc3c2=O)cc1 | . | -1.8
c1ccn2cc(-c3ccc4c(c3)OCCO4)nc2c1 | -2 | .
Cc1ccc(S(=O)(=O)/C(C#N)=C/c2ccc(-c3ccc(Cl)cc3)o2)cc1 | -0.2 | -0.33
C=Cc1ccc(Cn2c(C(=O)OC)cc3occc32)cc1 | -0.6 | -0.4
O=C(Nc1ncc(Cc2cc(Cl)ccc2Cl)s1)c1ccco1 | 1.5 | .
CC[n+]1oc(-c2ccccc2)cc1C | 0.15 | -0.61
COc1ccc(/C(C#N)=C/c2cc(OC)c(OC)c(OC)c2)cc1 | . | 19
CCCCN1C(=O)C2ON(c3ccccc3C)C(c3ccco3)C2C1=O (centres undefined) | -0.25&-1.3 | -0.41&-0.32
CC1(C)CC2CC(C)(CN2C(=O)CSc2cccc[n+]2[O-])C1 (centres undefined) | -0.45 | .
O/N=C(/CCc1ccccc1)C1(O)CCCCC1 | -0.45 | -0.085
COc1ccc2cc1Oc1ccc(cc1)CC1c3cc(c(OC)cc3CCN1C)Oc1c(OC)c(OC)c(OC)c3c1C(C2)N(C)CC3 (centres undefined) | . | -0.34
CC(C)Cn1c(=S)[nH]c2cc(Cl)ccc21 | -0.55 | .
Nc1ccc(-c2ccc(N)cc2C(F)(F)F)c(C(F)(F)F)c1 | 1.2 | .

Compound activity: PubChem, ICCB-Longwood Screening Facility, Harvard Medical School
